# Rce1 inh = yeast Rce1p protease inhibitors, primary screen, biochemical, fluorescence, cell-free homogeneous; CAAX prenyl protease 2 (Saccharomyces cerevisiae (strain ATCC 204508 / S288c)), Q03530; yeast membranes, quenched prenylated peptide cleavage fluorescence; calls only; 290,000 compounds, 0.27% hits; AID 2563, 2010;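 active = fall in fluorescence gain of 50% or more versus controls, with final raw signal at or below 3038400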;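 also: plate controls were neutral control wells for no effect and wells lacking membranes for full effect; tested at 10 µM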
# CSC inhib = cancer stem cell viability inhibitors, primary screen, luminescence. cancer stem cell-like cells viability. inhibition, % at 7.5 µM. 300,000 compounds, 1.1% hits;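 active = mean at 75% or more and at least half the replicates too; tested in HMLE shEcad cells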;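 also: 0% = median of negative and 100% = median of positive control wells; the first replicate is given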
# Yeast UUG start = modulators of yeast start codon fidelity, primary screen, whole organism, S. cerevisiae, single point, plate reader. S. cerevisiae UUG-firefly luciferase reporter, luminescence/redox ratio. activity score, % at 18.7 µM. 350,000 compounds, 0.13% hits. AID 602363, 2012;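 active = replicate mean at a twofold rise or more, about +100% in these data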;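 also: firefly luciferase made from a UUG start codon reports start codon fidelity; reporter light over untreated wells divided by growth signal over untreated wells; some hits fall short of that in this replicate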
# MT1-MMP act inh = blockers of MT1-MMP proenzyme processing, primary screen, HT1080 RFP-PRO-GFP cells, GFP/RFP fluorescence; AID 651647, 2012; GFP/RFP ratio change, % at 20 µM; 360,000 compounds, 0.061% hits; GFP/RFP ratio fluorescence, overnight; percent of plate control window, DMSO zero; Matrix metalloproteinase-14 (Homo sapiens), P50281;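 active = GFP/RFP ratio change of at least 30% with cell ATP level not reduced by more than half and red fluorescence within 50% of control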; also: strong numbers were not always called active
#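 Assay system – RFP-PRO-GFP reporter HT1080 cells · Compound dosing – single dose of 20 µM compound, 1% DMSO final · Incubation – overnight compound exposure at 37 °C · Measure – GFP/RFP fluorescence ratio · Benchmarks – DMSO wells and RFP-L50D-GFP cells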
# HIV Env fusion = inhibitors of HIV-1 Env-driven cell-cell fusion, primary screen, HeLa-JRFL effector, CEM21 target cells, luciferase. inhibition, % at 12.3 µM. 360,000 compounds, 1.1% hits. AID 651610, 2012;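 active = mean replicate inhibition score of at least 50 and every replicate individually at or above 50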;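 also: 0% = plate neutral controls and 100% = maraviroc near 300 nM; one replicate is shown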
# PABP FP inh = PABP poly(A) RNA binding inhibitors, primary screen, biochemical, fluorescence polarization, uHTS; Polyadenylate-binding protein 1 (Homo sapiens), P11940; inhibition, % at 35 µM; 290,000 compounds, 1% hits; AID 2014, 2009;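 active = 50% or more with normal probe brightness, or confirmed in later tests; about a fifth of its hits are not listed in these tables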;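 also: calls also rest on retests at 20 µM and on dose response follow-up; controls were probe without protein and protein plus probe with vehicle; some compounds called inactive have numbers as strong as hits; many hits fall short of the cut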
# Target sequence (P11940 whole entry, looked up): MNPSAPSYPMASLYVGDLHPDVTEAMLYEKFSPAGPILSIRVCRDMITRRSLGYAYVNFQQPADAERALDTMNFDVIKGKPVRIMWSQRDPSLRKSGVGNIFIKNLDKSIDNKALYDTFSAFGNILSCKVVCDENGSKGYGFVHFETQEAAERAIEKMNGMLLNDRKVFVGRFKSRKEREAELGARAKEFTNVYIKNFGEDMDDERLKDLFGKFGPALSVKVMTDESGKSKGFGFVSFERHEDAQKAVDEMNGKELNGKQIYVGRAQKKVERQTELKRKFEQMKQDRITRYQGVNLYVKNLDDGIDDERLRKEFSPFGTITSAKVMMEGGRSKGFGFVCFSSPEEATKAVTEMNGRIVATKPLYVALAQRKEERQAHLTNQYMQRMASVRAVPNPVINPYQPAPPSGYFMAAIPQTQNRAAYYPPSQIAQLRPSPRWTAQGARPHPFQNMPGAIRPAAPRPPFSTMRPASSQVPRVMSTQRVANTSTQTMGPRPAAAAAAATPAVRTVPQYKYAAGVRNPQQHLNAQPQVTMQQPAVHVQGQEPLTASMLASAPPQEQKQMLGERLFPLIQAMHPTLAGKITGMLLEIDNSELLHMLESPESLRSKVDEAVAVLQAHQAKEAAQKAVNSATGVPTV
# eIF4H inh = human eIF4H binding inhibitors, primary screen, translation initiation inhibitor project, biochemical, uHTS, fluorescence polarization | Eukaryotic translation initiation factor 4H (Homo sapiens), Q15056 | eIF4H fluorescence polarization binding assay | inhibition, % at 35 µM | 290,000 compounds, 0.94% hits | AID 2012, 2009;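 active = 50% or more with normal probe brightness, or confirmed in later tests; about a fifth of its hits are not listed in these tables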;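 also: calls also rest on retests at 20 µM and on dose response follow-up; 0% = protein and probe with vehicle and 100% = probe without protein; strong numbers were not always called active; many hits fall short of the cut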
# eIF4H inh retest = recorded beside eIF4H inh, whose call it bears; inhibition, %; compound at 20 µM; confirmation average;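 mean of two retest wells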
# PABP FP inh retest = recorded beside PABP FP inh, whose call it bears; inhibition, %; compound at 20 µM; confirmation repeats;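 mean of two retest wells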
# MT1-MMP act inh RFP = second read-out of MT1-MMP act inh, no call of its own (marks repeat the call); RFP signal change, %; measured here: RFP expression control read;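 0 = vehicle wells; hits needed this value within 50% of zero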
# Numbers without * were called inactive; i = inactive; / = no result given; & = joins results of further samples.
SMILES,Rce1 inh,CSC inhib,Yeast UUG start,MT1-MMP act inh,MT1-MMP act inh RFP,HIV Env fusion,PABP FP inh,eIF4H inh,others
Cc1ccc(N(CC(=O)N2CCc3ccccc32)S(=O)(=O)c2cccs2)cc1,i,3,/,-6,-3,9,-1,-5,
Cc1nn(CC(=O)NCC(C)c2ccccc2)c(=O)c2cc3occc3n12 (stereo not given),i,-11,-11,0,0,-5,3,4,
CS(=O)(=O)Nc1ccc(C(=O)Nc2ccc(S(=O)(=O)N3CCCC3)cc2)cc1,i,4,-9,-1,-2,-8,10,6,
O=C1/C(=C\c2ccco2)NC(=S)N1c1ccccc1,i,0,/,-15,21,3,65*,60,eIF4H inh retest=17;PABP FP inh retest=94*
Cc1cc(C)n2nc(C(=O)OCC(=O)Nc3cc(Cl)ccc3C)nc2n1,/,-3,-7,6,5,/,/,/,
O=C(NNC(=O)C1CC=CCC1)c1ccccc1Cl (stereo not given),i,-11,-4,1,-3,11,-9,1,
Cc1ccc2c(C)cc[n+](CCCS(=O)(=O)[O-])c2c1,i,-17,7,1,2,14,-5,11,
COc1ccccc1NC(=O)CSC1=NC(=O)C(Cc2ccccc2)C(=O)N1 (stereo not given),i,8,27,-1,-3,2,13,-1,
CC(C)Nc1ncnc2c1ncn2[C@H]1CN(Cc2ccco2)C[C@@H](CO)O1,/,/,-5,2,-1,-2,/,/,
C[n+]1c(-c2ccccc2)sc([S-])c1-c1ccccc1,i,14,-9,-1,-2,2,/,/,
CCCC[C@H]1C2=C3[C@@H](CC(C(=O)OC)=C[C@@H](C(=O)OC)[C@H]3C(C)(C)C2=O)n2c(=O)n(-c3ccccc3)c(=O)n21,i,/,-2,-4,-2,22,/,/,
O=C1C(=Cc2ccco2)CCCC1=Cc1ccco1,/,/,-27,-1,18,-244,/,/,
CC(=O)c1ccc(OCC(O)CN(C)CCOc2ccc(Br)cc2)cc1 (stereo not given),i,12,11,2,-5,14,-5,-1,
Fc1ccc(COc2ccc(/C=N/n3cnnc3)cc2)cc1,i,2,-34,1,-6,-72,3,-6,
O=C(Nc1nnc(-c2ccco2)s1)C1CC1,i,0,-6,4,8,-33,4,32,

# Reprinted at random: 4 compounds from above.
SMILES,Rce1 inh,CSC inhib,Yeast UUG start,MT1-MMP act inh,MT1-MMP act inh RFP,HIV Env fusion,PABP FP inh,eIF4H inh,others
O=C(Nc1nnc(-c2ccco2)s1)C1CC1,i,0,-6,4,8,-33,4,32,
Cc1cc(C)n2nc(C(=O)OCC(=O)Nc3cc(Cl)ccc3C)nc2n1,/,-3,-7,6,5,/,/,/,
O=C(NNC(=O)C1CC=CCC1)c1ccccc1Cl (stereo not given),i,-11,-4,1,-3,11,-9,1,
CC(=O)c1ccc(OCC(O)CN(C)CCOc2ccc(Br)cc2)cc1 (stereo not given),i,12,11,2,-5,14,-5,-1,

# Following part.
SMILES,Rce1 inh,CSC inhib,Yeast UUG start,MT1-MMP act inh,MT1-MMP act inh RFP,HIV Env fusion,PABP FP inh,eIF4H inh,others
O=C(CN1CCN(Cc2ccccc2)CC1)N/N=C/c1cccs1,i,-4,/,1,0,3,-1,-1,
Cc1cc([N+](=O)[O-])nn1CCCC(=O)NC1CCCCC1,i,-2,/,0,0,8,-4,4,
O=c1c2ccccc2cnn1Cc1ccc(Cl)c(Cl)c1,/,-9,13,-4,-3,10,0,1,
CSc1nc(C)c(CCOCc2ccccc2)c(=O)[nH]1,i,-14,/,6,4,-35,9,2,
FC(F)(F)c1ccc(-c2nnc(-c3ccccn3)c(-c3ccccn3)n2)nc1,i,-9,/,1,3,3,-1,-1,
O=S(=O)(NCCn1cccc1)c1ccc2ccccc2c1,i,-8,-5,1,6,0,-3,-4,
COc1ccc(Nc2nc3cc(-c4ccsc4)sc3c(=O)n2C)cc1OC,/,/,4,13,1,-20,/,/,
CC(=O)N1CCN(S(=O)(=O)c2cccc(C(=O)Nc3ccc(C)cn3)c2)CC1,i,4,-13,2,-8,21,-8,-6,
C=C1CC2C3CC[C@@]4(OCOC45COCO5)[C@@]3(C)C(O)CC2[C@@]2(C)CCC(=O)C=C12 (stereo not given in full),i,8,-6,-4,-5,-34,3,-4,
NC(=O)N/N=C/c1ccc(N2CCOCC2)s1,i,-5,/,0,6,24,-1,-2,
COc1ccc(OCC(=O)NNC(=O)c2ccccc2OCc2c(C)noc2C)cc1,i,-18,/,-5,-1,1,/,/,
O=C(Cc1ccccc1[N+](=O)[O-])Nc1nccs1,i,-17,0,-2,1,18,9,0,
CCc1nnc(NC(=O)CCC(=O)N2CCC(Cc3ccccc3)CC2)s1,i,10,-12,4,4,2,-3,-2,
CCn1c(N)c(C(=O)Nc2ccccc2C(=O)OC)sc1=S,i,2,/,2,7,/,-5,-6,
CCOC(=O)Cc1csc(NC(=O)C(NC(=O)C2CCCCC2)C(C)C)n1 (stereo not given),i,-13,/,-1,-6,-10,-15,2,
O=c1cc(-c2ccc([N+](=O)[O-])cc2)c2cc3c(cc2[nH]1)OCCO3,i,0,/,-3,-13,35,-15,-11,
Cc1cc(=O)[nH]c(SCC(=O)N2CCCc3ccccc32)n1,i,-6,-8,11,6,/,3,-5,
CCOC(=O)c1c(OCC)[nH]c2ccc(O)cc12,i,-9,-11,19,5,-15,-5,0,
COCCN(Cc1cc2cc3c(cc2nc1Cl)OCO3)C(=O)Nc1ccc(F)cc1,i,-10,7,-8,-22,/,-14,2,
CNC(=O)C1Cc2c(-c3ccccc3Oc3ccccc3)ccnc2O1 (stereo not given),/,/,-28,4,0,-2,/,/,
Cc1cccc(C(=O)OCN2C(=O)c3ccccc3C2=O)c1[N+](=O)[O-],i,-2,-22,1,0,-4,-5,-7,
CCOC(=O)C1=CN(Cc2cccc(F)c2)S(=O)(=O)NC1c1ccc(Br)cc1F (stereo not given),/,/,-39,0,-7,8,/,/,
COc1ccc(NC(=O)CC2C(=O)N(C)C(=S)N2CCc2ccccc2)cc1 (stereo not given),i,51,0,0,-5,-10,4,-2,
Cc1ccc(NC(=O)C(OC(=O)c2ccc(NC(N)=O)cc2)c2ccccc2)cc1Cl (stereo not given),i,30,/,0,-6,-22,7,1,
CN(C(=O)COC(=O)COc1ccc2ccccc2c1)c1ccccc1,/,/,-10,0,4,-8,/,/,
O=C(Nc1ccc2c(c1)Cc1ccccc1-2)c1ccccc1F,i,-1,/,0,-3,-115,/,/,
COc1ccc(-c2c(NCCc3ccccc3)c(=O)c2=O)cc1,i,-5,-6,4,-1,7,-25,4,
O=C(CSc1ccc2nnc(-c3ccc(F)cc3)n2n1)N1CCOCC1,i,-9,-20,-5,-1,6,/,/,
CC1CCCN(c2nc(N(C)c3ccccc3)nc(N)c2[N+](=O)[O-])C1 (stereo not given),i,-3,/,-1,-12,8,6,-7,
O=c1oc2ccccc2n1CCCCCn1c(=O)oc2ccccc21,i,/,/,2,-2,/,-1,-1,
CC(C)Oc1ccccc1/C=N/NC(=O)c1ccc(F)cc1,i,-2,0,-5,3,-54,-5,-3,
O=C(N/N=C/c1cccnc1)c1ccccc1OCc1cccc(Br)c1,i,5,/,-7,-8,8,-12,6,
CC(C)OC(=O)N(C)C[C@@H]1OCc2cn(nn2)CCCC(=O)N([C@H](C)CO)C[C@H]1C,/,/,-1&7,4,0,-76,/,/,
Cc1ccc(NC(=O)CCc2ccccc2)cc1S(=O)(=O)N1CCOCC1,/,3,-9,2,3,4,/,/,
COc1ccc(OC)c(-c2nc(C(N)=O)c3[nH]c(=O)n(-c4ccc(F)cc4)c3n2)c1,i,2,-9,0,-1,-11,3,0,
O=S(=O)(Nc1ccc(Oc2ncccn2)c(Cl)c1)c1ccc(F)cc1,i,-12,-12,-7,-5,-95,1,-4,
CC(C)C(NC(=O)CSc1ccc(Cl)cc1)C(C)C,i,-7,-18,-1,-3,/,4,-1,
CSc1ccccc1NC(=O)C1=COCCO1,i,-8,-4,0,1,-11,2,-5,
CSCCC(NS(=O)(=O)c1ccc(C)cc1)C(=O)N1CCN(C(c2ccccc2)c2ccccc2)CC1 (stereo not given),i,/,/,-7,-7,4,/,/,
Clc1nc(Cl)c2ncn(-c3ccccc3)c2n1,/,/,-24,-7,-4,-60,/,/,
COc1ccc(CN(CC(=O)NCCc2ccccc2)C(=O)CCC(=O)Nc2ccccn2)cc1,i,-13,32,-6,-8,4,-3,10,
CCOC(=O)C1CCCN(C(=O)Cn2cnc3sc(C)c(S(=O)(=O)N4CCOCC4)c3c2=O)C1 (stereo not given),i,9,-28,0,0,-18,15,-5,
C/C(=N\NC(=S)NC1CCCCC1)c1ccc(Cl)c(Cl)c1,i,-6,/,0,0,-17,4,-14,
Cc1c(NS(=O)(=O)c2ccc3c(c2)Cc2ccccc2-3)c(=O)n(-c2ccccc2)n1C,i,-3,/,1,3,19,-6,-6,
CCCNC(=O)C1(C)CCN(Cc2ccc(C)c3ccccc23)C1 (stereo not given),/,/,0,-1,-3,-3,/,/,
CCOC(=O)C1(C)CCN1C(=O)c1cccc2ccccc12 (stereo not given),/,/,4,2,3,-381,/,/,
CCn1c(SCC(=O)Nc2ccccc2N2CCOCC2)nnc1-c1ccccc1,i,-18,-7,-2,1,-44,5,0,
C=CCN1C(=O)C(CC(=O)O)SC1=Nc1c(C)n(C)n(-c2ccccc2)c1=O (stereo not given),i,-3,-8,1,2,-36,-3,-5,
COc1ccc(Cc2c(-c3cccc(Br)c3)nc3ccc(Cl)cn23)c(C)c1,/,/,-7,-4,-5,-50,/,/,
CCOC(=O)C1CCN(C(=O)COC(=O)/C=C/c2ccc([N+](=O)[O-])cc2)CC1,/,-4,-9,3,-3,-5,/,/,
O=C(CC1NCCNC1=O)Nc1ccc2c(c1)OCCO2 (stereo not given),/,-9,6,3,4,-9,-3,6,
Cn1[nH]c(C(F)(F)F)cc1=O,i,-4,-4,5,7,6,5,-4,
Cc1nc2ccc(C(=O)c3ccccc3)cc2[nH]1,i,-15,-13,-3,0,-8,-3,-9,
O=C(OC1CCOC1=O)C1CCN(S(=O)(=O)c2c(Cl)cccc2Cl)CC1 (stereo not given),i,/,6,-14,-3,3,/,/,
N#Cc1ccc(C23OCCN2CCn2nc4ccccc4c23)cc1 (stereo not given),/,/,-7,-3,4,-11,/,/,
CC(=O)c1ccc(N2CCC(C)CC2)c(F)c1,i,-9,/,-5,-2,-12,-3,1,
C=CCN=C(NC#N)SCc1ccccc1,i,-3,-6,10,2,/,9,2,
COc1ccc(CNC(=O)[C@H](Cc2ccccc2)NC(=O)C2CCN(C(=O)[C@H](C)N)CC2)cc1,i,-3,-14,-4,-4,/,-7,-7,
O=C(Cc1cccc(NC(=O)C2CCCN(C(=O)C3CC3)C2)c1)Nc1cccc(C(=O)N2CCCC2)c1 (stereo not given),/,-7,-6,2,4,-22,/,/,
COc1cc(OC)c(C(=O)N2CCCC2)cc1OC,i,-7,-11,1,1,-2,-12,-4,
Cc1nc(SCC(=O)O)c(C#N)c(C)c1CC(=O)c1ccccc1,i,/,/,-4,-2,6,16,1,
CCN1C(=O)CC(c2ccco2)Sc2ccccc21 (stereo not given),i,-10,-3,7,8,-91,7,-7,

# Source: PubChem BioAssay (several laboratories)

# A portion of the library, so the mix of outcomes need not match the whole.
